# VACV Venus inh: inhibitors of vaccinia virus (Venus reporter). Vaccinia virus Venus reporter expression, fluorescence. Potency, µM (highest dose often 36.5 µM), inactives show top-dose activity change, negative = inhibition, usual class: inhibitors. 330,000 tested, 0.46% active. AID 720580; active means well fitted inhibition curve with a large enough effect; inconclusive means small, poorly fitted or top-dose-only effect; inactive means no such curve, though single readings can be large or run the other way; tested in A549 cells; note: nearly all actives have a fitted effect of over 30% in size; inactives centre near -10
# VACV mCherry inh: inhibitors of vaccinia virus infection (mCherry reporter signal); Vaccinia virus mCherry reporter infection, fluorescence; about a quarter of the inactives have no number; Potency, µM (titrated, usually from 36.5 µM), for the others: at the top dose activity change, negative = inhibition, hits mostly inhibitors; 310,000 tested, 0.63% active; active = well fitted inhibition curve with a large enough effect; inconclusive = small, poorly fitted or top-dose-only effect; inactive = no such curve, though single readings can be large or run the other way; tested in A549 cells; note: nearly all actives have a fitted effect of over 35% in size; inactives centre near -10
# The depositor's hits bear a star; i = inactive; ? = inconclusive; . = not tested or not shown; & = joins results of further samples. % is set by controls: 0 for no effect and ±100 for the full control effect; potency is the fitted concentration of half-maximal effect.
SMILES,VACV Venus inh,VACV mCherry inh
CC(C)CNS(=O)(=O)c1ccc(CCC(=O)NCc2ccc(Cl)cc2)cc1,-3%,-3%
CC(C)NC(=O)N(C)C[C@H]1OCc2cnnn2CCCC(=O)N([C@@H](C)CO)C[C@H]1C,-3%,-5%
O=C(C1=C(O)C(=O)N(CCOCCO)C1c1ccccn1)c1cccs1 (configuration not stated),-5%,i
Oc1c(C(c2ccccn2)N2CCOCC2)ccc2cccnc12 (configuration not stated),-19%,-12%
C=CCN1CCN(C(c2ccc(OC)c(OC)c2)c2nnnn2C(C)(C)C)CC1 (configuration not stated),-4%,-12%
Cc1cnc(C(=O)Nc2nccs2)cn1,-22%,.
COc1ccc(NC(=O)c2cccs2)cc1O,-9%,.
O=C(CCS(=O)(=O)c1ccc(Br)s1)NCc1ccccc1,-11%,i
COc1ccc(OCCCC(=O)N2CCN(S(=O)(=O)c3cccc(F)c3)CC2)cc1,-2%,i
O=C(C[C@H]1C[C@H](C(=O)N2CCOCC2)[C@@]2(CCC3CCCC3)c3[nH]c4ccc(Cl)cc4c3CCN2C1=O)NCCN1CCOCC1,-10%,i
Cc1cc(C(F)F)n2nc(C(=O)Nc3sc4c(c3C(N)=O)CCC4)nc2n1,-19%,-20%
O=C(COc1ccc(Cl)cc1)Nc1ncc([N+](=O)[O-])s1,10µM*,11µM*
CC(C)[C@H]1COCCS(=O)(=O)N1Cc1ccccc1-c1ccccc1,-3%,-6%
CCCCCCOc1ccc(CN2CCN(CC)CC2)cc1,-15%,-1%
Cc1cccc(C)c1NC(=O)c1cc2sccc2n1Cc1ccc(F)cc1,-15%,-19%
COc1cccc(C2CC(C(F)(F)F)n3ncc(C(=O)NCc4ccco4)c3N2)c1 (configuration not stated),-18%,-3%
CCOC(=O)N1CCN(Cc2nc3c(c(=O)n(C)c(=O)n3C)n2CCC(C)C)CC1,-9%,-5%
CCOc1ccccc1N1CCN(C(=O)c2cc3ccccc3cc2OC)CC1,?,?
COc1cccc2cc(S(=O)(=O)c3ccc(F)c(C)c3)c(=O)oc12,1%,-11%
CC(=O)NC(Cc1ccc(F)c(F)c1)C(=O)NC1CCN(c2c(Cc3ccccc3)c(C)nc3ncnn23)CC1 (configuration not stated),-15%,-12%
C[C@H](CO)N1C[C@H](C)[C@@H](CN(C)Cc2ccc(C(F)(F)F)cc2)OCc2cnnn2CCCC1=O,-10%,i
O=C(Nc1cccc(Oc2ccccc2)c1)C1Cc2c(-c3ccccc3)ccnc2O1 (configuration not stated),3%,16%
CC(NC(=O)c1cc(S(=O)(=O)N2CCCC2)cn1C)c1ccccc1 (configuration not stated),-5%,-5%
Cc1ccc(NC(=O)C2(c3ccc([N+](=O)[O-])cc3)CCCC2)cc1,0%,i
CCOc1ccccc1NC(=O)c1c(NC(=O)CCC(=O)O)sc2c1CCCCC2,4%,-24%
C=CCCC1CN(CCCC)S(=O)(=O)c2c(F)cccc2O1 (configuration not stated),-16%,i
COc1ccccc1CN1C[C@@H]2C[C@@H](c3ccccc3C)N3CCC[C@@]23C1=O,-16%,-8%
Cc1ccc(C)c(NC(=S)NCCN2CCOCC2)c1,11%,3%
O=c1cc(NCCO)c2ccccc2o1,-9%,i
COc1cc([N+](=O)[O-])c(C(=O)N2CCOCC2)c([N+](=O)[O-])c1,-1%,i
O=C(c1ccc2ccccc2c1)C1CCCN(C(=O)CCn2cnnn2)C1 (configuration not stated),-10%,-10%
CCC(=O)N1CCN(c2ccc(NC(=O)c3ccc4c(c3)OCCO4)cc2)CC1,2%,-13%
COC(=O)c1ccc(NC(=O)CS(=O)(=O)Cc2ccccc2)cc1,-6%,-6%
Cn1c(=O)[nH]c2ncn(C)c2c1=O,-12%&-5%&0%,-11%&11%
COC(=O)c1ccccc1NC(=O)CSc1nc(C)c(Cl)c(C)c1C#N,-3%,-17%
CC(C)c1ccc(S(=O)(=O)c2cnc(SCC(=O)Nc3ccc4c(c3)OCCO4)[nH]c2=O)cc1,6%,1%
COc1ccc(-n2cnc3cc(C(=O)NCCC4=CCCCC4)ccc32)cc1,-8%,-11%
Cc1ccc(Nc2nc(COC(=O)C3CC3)cs2)cc1,-10%,i
CC1=CC(C)(C)NC(=S)N1CCO,-8%,i
CC(=O)c1cccc(NC(=O)[C@H](Cc2ccccc2)N2Cc3ccccc3C2=O)c1,-3%,1%

# Three of the compounds above, with two lines to a compound:
# Results follow in this order: VACV Venus inh | VACV mCherry inh
O=C(c1ccc2ccccc2c1)C1CCCN(C(=O)CCn2cnnn2)C1 (configuration not stated)
 : -10% | -10%
COC(=O)c1ccccc1NC(=O)CSc1nc(C)c(Cl)c(C)c1C#N
 : -3% | -17%
Cc1ccc(Nc2nc(COC(=O)C3CC3)cs2)cc1
 : -10% | i

# (further entries)
SMILES,VACV Venus inh,VACV mCherry inh
C=CCn1c(SCC(=O)NCC2CCCO2)nc2scc(-c3ccco3)c2c1=O (configuration not stated),-4%,i
COc1ccccc1CNC(=O)COC(=O)Cc1c(F)cccc1Cl,-5%,i
O=C(CCCC(=O)OCC(F)(F)C(F)F)Nc1ccccc1F,-17%,0%
Oc1ccccc1C(=S)N1CCCCC1,-7%,.
Cc1nc(NC(=O)CSc2nnc(-c3ccc4c(c3)OCO4)o2)c(Cl)cc1Cl,-11%,-3%
COc1ccccc1Oc1nc2c(c(=O)n(Cc3ccccc3F)c(=O)n2C)n1C,0%,-14%
O=[N+]([O-])c1ccccc1-c1nc(-c2ccc(Br)o2)no1,-4%,-2%
COc1cccc(/C(C)=N/NC(=O)c2ccc(N(C)C)cc2)c1,-7%,-13%
O=C(NNC(=O)c1cccc2ccccc12)c1cccc(Br)c1,-9%,i
CCC(COC(=O)NC)NC(=O)Oc1cccc(C)c1 (configuration not stated),-7%,i

# Complete entries, quoted from the list:
# O=C(NNC(=O)c1cccc2ccccc12)c1cccc(Br)c1 is listed with VACV Venus inh = -9%; VACV mCherry inh = i
# C=CCn1c(SCC(=O)NCC2CCCO2)nc2scc(-c3ccco3)c2c1=O (configuration not stated) is listed with VACV Venus inh = -4%; VACV mCherry inh = i

# (listing goes on)
SMILES,VACV Venus inh,VACV mCherry inh
CCN1C(=O)[C@H]2[C@@H](c3ccc(-c4cccc(Cl)c4)cc3)N3CCCC[C@@]3(C(=O)OC)[C@H]2C1=O,?,-11%
O=C(c1ccccc1)N(Cc1ccc2c(c1)OCO2)Cc1nc2ccccc2c(=O)[nH]1,-3%,-7%
CCOC(=O)c1cc(C#N)c(N2CCN(c3ccccn3)CC2)nc1-c1ccccc1,-16%,-12%
CCC(C)(C)n1nnnc1C(c1ccc(OC)c(OC)c1)N1CCN(C(=O)c2ccco2)CC1 (configuration not stated),-19%,-14%
CC(CCc1ccccc1)NC(=O)c1ccc(NC(=O)c2ccc(Cl)cc2Cl)cc1 (configuration not stated),-8%,i
Cc1ccc(OCCNC(=O)c2cccc(S(=O)(=O)NCc3ccccc3)c2)cc1,?,-30%
CC(=O)NC(c1cccc(F)c1)c1nc(-c2cc3ccccc3o2)cs1 (configuration not stated),-13%,i
CCOC(=O)[C@]12Cc3ccccc3[C@H]1N(Cc1ccccc1)C(=O)c1cc(OC)ccc12,-5%,12%
CC(C)(C)c1csc(NC(=O)c2ccc3nccnc3c2)n1,-20%,.
CCC(C)(C)n1nnnc1C(c1ccncc1)N1CCN(c2cccc(OC)c2)CC1 (configuration not stated),-16%,-12%
Cc1cc(C(=O)NCc2nc(-c3cccc(NC(=O)c4cc(C)oc4C)c3)oc2C)nc(C)n1,3%,-16%
O=C(NCCC(F)(F)F)C1Cc2c(-c3ccc(Cl)cc3)ccnc2O1 (configuration not stated),-13%,-27%
COc1ccc(C(C)(C)C)cc1NC(=O)COC(=O)c1ncc(Cl)c(Cl)c1Cl,-8%,0%
CCOc1ccc(C2N(c3ccc(F)cc3)C(=O)C3CCCN32)cc1OC (configuration not stated),4%,0%
CCCCCCC(=O)NN1CCN(C)CC1,9%,.
COc1ccc(C(=O)Nc2n[nH]c(-c3ccncc3)n2)cc1,-1%,i
Cc1c(C(=O)NC2CCCCC2)oc2ccc(F)cc12,3%,-6%
Cc1ccc2nc(SCC(=O)NCc3cccs3)c(C#N)cc2c1,1%,-4%
CC(=O)c1ccc(NC(=O)c2nc(-c3ccccc3)n(-c3ccc(Cl)cc3)n2)cc1,-9%,i
COc1ccc(NC(=O)CNC(=O)c2ccco2)cc1S(=O)(=O)Nc1cc(C)ccc1Br,-10%,-15%
O=C(NCc1ccccc1)C(c1ccc(-c2ccccc2)cc1)N1CCN(CCN2CCOCC2)CC1 (configuration not stated),-24%,-15%
CCOc1ccc2nc(NC(=O)c3nc(SCc4ccccc4C)ncc3Cl)sc2c1,-4%,0%
CCOc1cccc(-c2c(C(=O)N/N=C/c3cccs3)nnn2-c2nonc2N)c1,-11%,-14%
C=CCSc1nnc(CSc2nc3sc4c(c3c(=O)[nH]2)CCCC4)n1-c1ccccc1,-14%,-10%
Cc1ccc(C(=O)NC(=S)Nc2cccnc2Cl)cc1,-15%,-2%
NC(=O)C(=O)N/N=C/c1c2ccccc2cc2ccccc12,-29%,?
Cc1ccc(Cl)cc1NC(=O)c1cc(CN2CCCC2)on1,1%,3%
CC(=O)Nc1ccc2c(c1)C(=Nc1cccc(C)c1)c1ccccc1-2,-5%,-17%
Cc1csc2ncnc(N3CCN(C(=S)Nc4ccc(F)cc4F)CC3)c12,?,?
O=C(c1ccccc1)c1ccc(C(=O)N2CCCC(C(F)(F)F)C2)cc1 (configuration not stated),-20%,-3%

# Three structures already listed, sorted by molecular weight, rising.
SMILES,VACV Venus inh,VACV mCherry inh
CC1=CC(C)(C)NC(=S)N1CCO,-8%,i
O=C(NCCC(F)(F)F)C1Cc2c(-c3ccc(Cl)cc3)ccnc2O1 (configuration not stated),-13%,-27%
COc1ccc(OCCCC(=O)N2CCN(S(=O)(=O)c3cccc(F)c3)CC2)cc1,-2%,i

# Back to the main list, repeating the 3 entries before the break.
SMILES,VACV Venus inh,VACV mCherry inh
CC(=O)Nc1ccc2c(c1)C(=Nc1cccc(C)c1)c1ccccc1-2,-5%,-17%
Cc1csc2ncnc(N3CCN(C(=S)Nc4ccc(F)cc4F)CC3)c12,?,?
O=C(c1ccccc1)c1ccc(C(=O)N2CCCC(C(F)(F)F)C2)cc1 (configuration not stated),-20%,-3%
CCCc1nc2ccccc2c(=O)n1/N=C/c1ccccc1O,?,10µM*
CN1CCN(C(=O)C(N)Cc2ccccc2)CC1 (configuration not stated),0%,-7%
CC1=C(C(=O)O)N2C(=O)C(NC(=O)C(N)C3=CCC=CC3)C2SC1 (configuration not stated),-2%,-16%
O=C(NCc1cc(C(F)(F)F)cc(C(F)(F)F)c1)C1CC(c2cccc(F)c2)=NO1 (configuration not stated),-6%,i
O=C(/C=C/Nc1ccc(F)c(F)c1)c1cccs1,-16%,i
CCc1nc2c(OCc3ccc(C(F)(F)F)cc3)cccn2c1N(C)C(=O)c1ccc(OC)cc1,-17%,-21%
Cn1cc(C(=O)OCC(=O)N2CCCC2)c2ccccc21,-16%,i
CSCCC(NS(=O)(=O)c1ccc2c(c1)oc(=O)n2C)C(=O)NCCc1ccc(C)cc1 (configuration not stated),-8%,-13%
CC1CC[C@@]2(OC1)OC1CC3C4CC[C@H]5CC(O)CC[C@@]5(C)C4CC[C@]3(C)C1C2C (some centres not stated),0%,i
N#CC(Br)Br,-17%,-1%
Cc1cc(C)cc(N2C(=O)CSC23C(=O)N(Cc2c(F)cccc2Cl)c2ccccc23)c1 (configuration not stated),-19%,-19%
CCCS(=O)(=O)NC(=O)C1(C)CCN(C(=O)Cc2ccc(F)cc2)C1 (configuration not stated),6%,24%
CCOC(=O)c1c(C)[nH]c(C)c1C(=O)COC(=O)c1ccc(OC)c(OC)c1,-14%,-19%
CN(C(=O)COC(=O)c1ccc(Br)c(S(=O)(=O)N2CCOCC2)c1)C1CCCCC1,-10%,-12%
C[n+]1cn(CC(O)COCc2ccccc2)c2ccccc21 (configuration not stated),-20%,-28%
N#Cc1ccc(COC(=O)c2cccnc2Cl)cc1,-11%,-1%
Cn1c(SCC(=O)N/N=C/c2ccncc2)nc2ccccc21,-17%,-16%
O=C(O)c1cccc(NC(=S)NC(NC(=O)c2ccco2)C(Cl)(Cl)Cl)c1 (configuration not stated),-24%,i
O=C(NCc1cccs1)C1CC(c2ccccc2O)=NO1 (configuration not stated),-20%,?
COC(=O)CCC(=O)OC1(C)C(=O)C=C2C=C(c3ccsc3)OC=C2C1=O (configuration not stated),0%,-12%
Cc1nc2nc(NCc3cccc(Br)c3)[nH]n2c(=O)c1Cc1ccccc1,-9%,-11%
O=C(CCC(=O)Nc1ccc(Br)cc1)N/N=C/c1ccccc1F,-30%,?
N#Cc1c(N)nc(SCC(=O)NCCc2ccccc2)c(C#N)c1-c1cccs1,-8%,.
COCCNC(=O)Cn1nc(-c2ccccc2)c2ccccc2c1=O,-10%&-12%,10%
Cc1ccc(N2C(=O)Nc3ccccc3C2(O)C(=O)N2CCN(c3ccccn3)CC2)cc1C (configuration not stated),-10%,-10%
Fc1cccc(Nc2ncnc3sccc23)c1,-22%,-8%

# High-throughput results from PubChem.
